Assay outcomes deposited in PubChem BioAssay by National Center for Advancing Translational Sciences (NCATS).
ClpP mod: qHTS Assay for Activators of ClpP; ATP-dependent Clp protease proteolytic subunit (Bacillus subtilis (strain 168)), P80244; purified B. subtilis ClpP, FRET peptide cleavage, 20 min; Potency, µM (doses to about 57.5 µM), for inactives: at the highest dose activity change, negative = active; 1.9% of 340,000 active; AID 651965, 2013; active = well fitted falling curve with a large enough effect; inconclusive = small, poorly fitted or top-dose-only effect; inactive = no such curve, though single readings can be large or run the other way; note: potency is the fitted concentration of half-maximal effect; the source files actives as falling curves though it sought activators and does not explain the sign; nearly all actives have a fitted effect of over 65% in size; many hits overshoot -100%
Target sequence (P80244 whole entry, looked up): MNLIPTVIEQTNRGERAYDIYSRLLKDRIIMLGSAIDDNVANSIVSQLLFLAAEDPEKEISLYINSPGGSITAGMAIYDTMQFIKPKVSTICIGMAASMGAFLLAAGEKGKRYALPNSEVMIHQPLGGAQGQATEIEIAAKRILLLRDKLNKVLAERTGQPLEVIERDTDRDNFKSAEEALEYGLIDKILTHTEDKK
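Purified B. subtilis ClpP, 10 microg/mL final in Tris/HCl pH8 with KCl, BSA, glycerol and Tween-20, cleaved an Abz/nitrotyrosine-quenched decapeptide. Fluorescence (ex 320, em 430) was read at 0 and 20 min at room temperature. Delta was normalized to 5.8 microM ADEP and DMSO/no-enzyme controls.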
gsp antag: qHTS for Antagonists of gsp, the Etiologic Mutation Responsible for Fibrous Dysplasia/McCune-Albright Syndrome: qHTS. gsp-mutant cells, cAMP HTRF, 30 min; control for the full effect not named in the record. Potency, µM (series often up to 76.9 µM), for inactives: at the top dose activity change, negative = inhibition, actives largely listed as inhibitors. 0.4% of 340,000 active. AID 624288, 2012; active = falling curve of any shape with a large fitted effect; inconclusive = falling curve, mostly with a smaller effect; inactive = flat or rising curve; cell line not stated here;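 note: intracellular cAMP measured with PDE inhibitor Ro 20-1724 present during compound exposure; potency is the fitted concentration of half-maximal effect; % is set by controls: 0 for no effect and ±100 for the full control effect; nearly all actives have a fitted effect of over 65% in size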
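HTRF cAMP read-out (cAMP-d2 plus anti-cAMP antibody-K in lysis buffer, 30 min RT). Before lysis, cells are exposed to compounds with […] for 30 min at 37C in DPBS containing Ca/Mg, BSA and Tween 20.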
Sfp PPTase inh: qHTS Assay for Inhibitors of Bacillus subtilis Sfp phosphopantetheinyl transferase (PPTase) | Biochemical Sfp PPTase activity, qHTS | Potency, µM, without a hit: max response, negative = inhibition, usual class: inhibitors | 3.5% of 310,000 active; active = well fitted inhibition curve with a large enough effect; inconclusive = small, poorly fitted or top-dose-only effect, or another doubt; inactive = no such curve, though single readings can be large or run the other way;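 note: the enzyme is Sfp with the accession as filed and its product quenches rhodamine fluorescence; potency is the fitted concentration of half-maximal effect; 0% = enzyme reaction without inhibitor and -100% = no enzyme wells; top concentration of the series not given in the record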
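Reaction rates are the 30-min fluorescence difference (ex 525, em 598 nm) in wells containing 15 nM Sfp, 5 uM rhodamine-CoA and 12.5 uM BHQ-2-YbbR at pH 7.6 with 10 mM MgCl2.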
D2 potentiator: Beta-Arrestin HTS for Positive Allosteric Modulators of the Human D2 Dopamine Receptor: Potentiators; D(2) dopamine receptor (Homo sapiens), P14416; DiscoveRx D2 beta-arrestin cells, luminescence, 90 min; 100% = 57 uM dopamine signal; potentiation, % (concentration not given with the values); 0.23% of 360,000 active; AID 624464, 2012; active = potentiation of 50% or more; inconclusive = 30% to 50%; inactive = 30% or less;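 note: compound concentration not given in the record; tested on top of an EC20 dose of dopamine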
Target sequence (P14416 whole entry, looked up): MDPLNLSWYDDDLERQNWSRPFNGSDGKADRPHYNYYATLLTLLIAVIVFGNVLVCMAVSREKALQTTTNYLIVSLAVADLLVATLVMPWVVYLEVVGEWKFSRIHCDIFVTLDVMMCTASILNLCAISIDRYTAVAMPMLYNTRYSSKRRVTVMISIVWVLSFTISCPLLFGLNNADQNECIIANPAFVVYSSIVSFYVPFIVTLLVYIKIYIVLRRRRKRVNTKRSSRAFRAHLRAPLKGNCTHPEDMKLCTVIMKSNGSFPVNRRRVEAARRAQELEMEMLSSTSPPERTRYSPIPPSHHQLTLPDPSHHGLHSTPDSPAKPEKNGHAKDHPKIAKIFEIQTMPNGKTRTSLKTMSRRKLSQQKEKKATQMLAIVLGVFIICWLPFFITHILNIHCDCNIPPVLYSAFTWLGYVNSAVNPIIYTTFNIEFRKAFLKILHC
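PathHunter beta-arrestin assay in DiscoveRx D2 cells. Compounds were added with an EC20 of dopamine (50 nM final) for 90 min at 37 deg C. Luminescence was read 1 h after detection reagent, with 57 uM dopamine as the EC100 control.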
TRPV1 potentiator: HTS Assay for Compounds that Act as Potentiators of the Vanilloid Receptor 1. potentiation, % at 8.33 µM. AID 540277, 2011. Transient receptor potential cation channel subfamily V member 1 (Homo sapiens), Q8NER1. TRPV1-expressing cells, Fluo-8 calcium influx, capsaicin EC20 potentiation; host cell line not named in the record; control for the full effect not named in the record. 0.02% of 320,000 active; active means potentiation above 80%; inconclusive means 30% to 80%; inactive means below 30%; note: 0% is about no effect
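Cells expressing TRPV1 were dye-loaded with Fluo-8 and read kinetically: 10 s baseline, 3 min after compound (agonist portion), then 2 min after EC20 capsaicin (allosteric enhancer portion). Calcium-bound dye fluorescence at 480/520 nm.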
gsp agonist: qHTS for Agonist of gsp, the Etiologic Mutation Responsible for Fibrous Dysplasia/McCune-Albright Syndrome: qHTS; gsp mutant cells, cAMP HTRF, 30 min; control for the full effect not named in the record; Potency, µM (highest dose often 76.9 µM), without a hit: at the highest dose activation (cAMP increase), hits mostly activators; 0.13% of 340,000 active; active = well fitted activation curve with a large enough effect; inconclusive = small, poorly fitted or top-dose-only effect, or another doubt; inactive = no such curve, though single readings can be large or run the other way; cell line not stated here;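 note: phosphodiesterase inhibitor Ro 20-1724 added with compounds to block cAMP breakdown; potency is the fitted concentration of half-maximal effect; nearly all actives have a fitted effect of over 60% in size; about a fifth of the inactives were tested at one dose only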
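Cells in DMEM/10% FBS with G418 were pretreated with compounds in DMSO plus […] (300 uM stock) for 30 min at 37C. cAMP was measured by HTRF (cAMP-d2 plus anti-cAMP antibody-K) after 30 min at room temperature.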
Menin-MLL FL inh: qHTS Assay for Inhibitors Targeting the Menin-MLL Interaction in MLL Related Leukemias: Competition With Fluorescein Labeled MLL-derived Peptide. Fluorescence polarization, fluorescein-MLL peptide displacement from menin. FP activity change, % at 61.4 µM. 290,000 tested, under 10 active; inconclusive = falling polarisation curve, or a change in total fluorescence; inactive = total fluorescence flat and polarisation flat or rising; no compound was filed as active; the % refers to the polarisation; negative = inhibition;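 note: % of control where 0% means no effect; inhibitors lower the polarisation; unlabelled MLL peptide was the positive control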
* = called active by the depositor; ? = inconclusive; nt = no result given; & = joins results of further samples; [ ] = dose if it differs, or a comment. Rows are unselected. Share with any hit: about 5.1%.

SMILES	ClpP mod	gsp antag	Sfp PPTase inh	D2 potentiator	TRPV1 potentiator	gsp agonist	Menin-MLL FL inh
COc1cccc(C2(O)CCN(C(=O)c3cccs3)CC2)c1	-0.1%	-3%	7%	-1	7	-45%[inhibitor]	2.5
CCOc1ccc(-n2c(=O)c3sccc3n(CC(=O)NCC3CCCO3)c2=O)cc1 (stereo not given)	nt	5%	14%	-9	-38	5%	-1.8
CCN(Cc1cc(=O)[nH]c2ccccc12)C(=O)c1ccc(C)cc1	-27%	4%	-1%	-15	-2	11%	5.8
COc1cccc(CN(C)C(=O)C(CCSC)NS(=O)(=O)c2ccc3c(c2)OCCO3)c1OC (stereo not given)	nt	-30%	nt	22	-13	-9%[15.4 µM]	nt
Cn1c(=O)c2c(ncn2CC(=O)N/N=C/C(Br)=C/c2ccccc2)n(C)c1=O	2.0%	-3%	-6%	-10	6	?	2.0
COc1ccc2cc3cc(C(=O)NCCCN4CCC(C)CC4)oc3nc2c1	4.3%	9%	0%	-32	-2	25%	nt
O=C(O)/C=C/C(=O)NNC(=O)c1cc(-c2ccccc2)n[nH]1	nt	3%	-40%	-7	10	3%[15.4 µM]	0.4
CCOc1ccc(S(=O)(=O)N2CCN(Cc3ccc4c(c3)OCO4)CC2)cc1OCC	-1.0%	-4%	5%	-5	-14	-79%[inhibitor]	nt
CC1(C)C(=O)OC(c2ccco2)C(C)(C)C1=O (stereo not given)	-2.6%	1%	0%	3	-3	15%	0.5
CC1CCN(S(=O)(=O)c2ccccc2[N+](=O)[O-])CC1	-3.8%	-17%	9%	12	-33	-19%	2.1
CC1=C(/C=C/C(=O)O)C(C)(C)CCC1	-0.9%	5%	13%	-5	-5	-19%	-0.5
CS(=O)(=O)N(Cc1ccc(C(=O)NCCSCc2ccco2)cc1)c1ccccc1	-0.6%	1%	18%	-3	0	2%	3.4
C=CCNC(=S)/N=c1/ccccn1C	-0.4%	10%	-29%	-2	-3	-4%[15.4 µM]	4.0
COc1ccc(CN2CCC(=O)N(CCO)CC2)cc1OC	0.5%&-0.8%	5%	15%	-5	7	3%	?
Cn1c(Cn2c(=O)sc3ccccc32)nnc1SCC(=O)NCc1ccc2c(c1)OCO2	1.5%	2%	16%	0	-8	-2%	3.6
Cc1c(NC(=O)C(C)Sc2nc(N)cc(=O)[nH]2)c(=O)n(-c2ccccc2)n1C (stereo not given)	-0.9%	10%	nt	-1	-1	2%	nt
CC(C)c1nc2cc(C(=O)NC(C)c3cnn(C)c3)ccc2o1 (stereo not given)	1.9%	2%	15%	-1	-7	-1%	nt
C=CCNc1nnc(Cc2ccc(F)cc2)c(=O)[nH]1	0.9%	21%	9%	-7	5	?	-0.1
CO/N=C/CC(=O)c1ccc([N+](=O)[O-])c(CS(=O)(=O)c2ccc(Cl)cc2)c1	-1.6%	?	4%	-5	30	?	-0.2
c1ccc(C2COC(c3cccs3)=N2)cc1 (stereo not given)	-3.8%	-6%	6%	1	2	-67%[inhibitor]	4.2
CS(=O)(=O)Cc1ccc(C(=O)NC2CCSc3ccccc32)cc1 (stereo not given)	nt	nt	18%	0	3	-8%[15.4 µM]	5.5
O=C(c1cnc(N2CCN(c3ncccn3)CC2)c2ccccc12)N1CCN(c2ccccn2)CC1	-6.9%	-4%	-6%	17	7	7%	2.9
COc1cccc2sc3ccc(C#CC4(O)CCCCC4)cc3c(=O)c12	-6.2%	-20%	-12%	-3	21	nt	-4.0
COc1ccc(NS(=O)(=O)c2cccc(C(=O)N/N=C/c3ccccn3)c2)cc1	nt	-2%	8%	-1	-5	15%[15.4 µM]	2.8
O=C(Nc1cccc(S(=O)(=O)N2CCOCC2)c1)c1ccc(Cl)nc1	1.6%	?	nt	12	nt	0%	nt

Five compounds already listed, arranged by SMILES length, rising:
SMILES	ClpP mod	gsp antag	Sfp PPTase inh	D2 potentiator	TRPV1 potentiator	gsp agonist	Menin-MLL FL inh
c1ccc(C2COC(c3cccs3)=N2)cc1 (stereo not given)	-3.8%	-6%	6%	1	2	-67%[inhibitor]	4.2
C=CCNc1nnc(Cc2ccc(F)cc2)c(=O)[nH]1	0.9%	21%	9%	-7	5	?	-0.1
CS(=O)(=O)Cc1ccc(C(=O)NC2CCSc3ccccc32)cc1 (stereo not given)	nt	nt	18%	0	3	-8%[15.4 µM]	5.5
COc1ccc(NS(=O)(=O)c2cccc(C(=O)N/N=C/c3ccccn3)c2)cc1	nt	-2%	8%	-1	-5	15%[15.4 µM]	2.8
O=C(c1cnc(N2CCN(c3ncccn3)CC2)c2ccccc12)N1CCN(c2ccccn2)CC1	-6.9%	-4%	-6%	17	7	7%	2.9

Next records:
SMILES	ClpP mod	gsp antag	Sfp PPTase inh	D2 potentiator	TRPV1 potentiator	gsp agonist	Menin-MLL FL inh
CC(=O)OC(C[N+]1(C)CCCCCC1)c1ccccc1 (stereo not given)	1.1%	6%	-3%	-13	-10	11%	-0.7
NC(=O)CC(NC(=O)c1ccccc1)c1ccc(NCc2ccccn2)c([N+](=O)[O-])c1 (stereo not given)	-0.8%	19%	-2%	-8	-9	nt	-3.5
Cc1ccc(/C=N\NC(=O)c2csnn2)cc1	0.7%	4%	10µM*	-20	-4	-1%	2.5
COc1ccc(N(CC(=O)Nc2cc(Cl)ccc2C)S(=O)(=O)c2c(C)n[nH]c2C)cc1	1.6%	5%	-2%	-14	12	-4%	nt
O=Cc1c(NCCc2ccc(F)cc2)c2ccccc2[nH]c1=O	0.2%	-9%	5%	-10	-4	-2%[15.4 µM]	-0.3
CCC(C(=O)Nc1cc(C)on1)c1ccccc1 (stereo not given)	1.7%	15%	0%	-6	-5	12%	8.5
COc1ccccc1C(=O)NNC(=O)c1ccc(F)cc1	nt	-10%	10%	-4	-5	0%[15.4 µM]	0.2
COc1ccc(OC)c(-c2cc(C(=O)Nc3c(C)n(C)n(-c4ccccc4)c3=O)no2)c1	-11%	-8%	8%	-22	3	-4%	4.3
O=C(COC(=O)C1CC1)NCCc1ccccc1	-1.4%	16%	nt	-9	nt	0%[15.4 µM]	nt
Cc1nn2c(nc1=O)SCC(c1ccccc1)=N2	2.3%	8%	-1%	6	-4	-1%	7.3
CCOC(=O)c1[nH]nc(-c2c(O)cc(C)cc2O)c1-c1csc(C)n1	1.4%	10%	9%	-16	14	-5%	4.1
CC[C@@H]1CC=C[C@H]2[C@H]1C(=O)N(Cc1ccccc1)[C@H]2c1ccoc1	-0.5%	-4%	-5%	-9	-16	nt	?
C/C=C/C(=O)Nc1nnc(C(C)C)s1	-4.8%	10%	-4%	-5	2	3%	-0.9
N/C(=N\OC(=O)c1cccc(Br)c1)c1ccc([N+](=O)[O-])cc1	-0.2%	4%	20%	14	7	22%	1.4
O=C(N/N=C/c1cc([N+](=O)[O-])ccc1O)C1CC1	1.9%	3%	23%	-18	-4	-9%	1.2
Cn1c(CNC(=O)C2CCCCC2)cc2cc(Cl)ccc21	-1.6%	10%	21%	-2	-1	4%[15.4 µM]	2.4
O=C(O)c1c(F)c(F)c(F)c(F)c1-c1ccc(Cl)cc1	0.7%	-9%	9%	8	23	1%	1.7
Cc1ccc(CNC(=O)[C@H](C)NC(=O)C2CCN(C(=O)[C@@H](N)CC(C)C)CC2)cc1	-5.8%	6%	5%	-25	-1	nt	-1.3
O=C(CSC1=NCCS1)Nc1cccc(F)c1	nt	nt	3%	-4	-6	-10%[15.4 µM]	6.9
O=C(OCC(=O)N1CCCc2ccccc21)C1CCN(S(=O)(=O)c2cccs2)CC1	-2.8%	-3%	9%	7	-10	0%	-1.0
CCN(CC)C(=O)Cn1cc(SCC(=O)NCc2ccco2)c2ccccc21	nt	-3%	11%	-3	2	-3%[15.4 µM]	1.9
O=C(N/N=C/c1ccccn1)c1cccs1	2.5%	-1%	-98%	-12	26	-16%	1.7
CCCn1c(N)c(N(CCOC)C(=O)CCC2CCCCC2)c(=O)[nH]c1=O	-6.9%	-1%	nt	1	-1	-18%	nt
COC(C(=O)N/N=C/c1ccc(OCC(=O)N2CCOCC2)cc1)c1ccccc1 (stereo not given)	nt	-6%	23%	3	28	0%	4.5
CCOc1ccc(OCC)c(NC(=O)C2CCN(S(=O)(=O)c3cccnc3)CC2)c1	-0.3%	-6%	9%	-5	-7	0%	4.3
(next part)
SMILES	ClpP mod	gsp antag	Sfp PPTase inh	D2 potentiator	TRPV1 potentiator	gsp agonist	Menin-MLL FL inh
COc1cccc(C2=CC(c3ccccc3)n3ncnc3N2)c1 (stereo not given)	nt	nt	0%	nt	-2	nt	-0.6
O=C(Cn1[nH]c(=O)c2ccccc2c1=O)Nc1cccc(S(=O)(=O)N2CCCCCC2)c1	nt	-13%	-11%	-3	10	3%[15.4 µM]	-4.1
COc1cccc(-c2cc(C(=O)Nc3cc(C)nn3-c3ccccc3)no2)c1	4.6%&5.3%	15%	-14%	3	0	-19%	0.6
COc1ccc(CCNC(=O)C(CC(C)C)NC(N)=O)cc1 (stereo not given)	-5.0%	7%	2%	-8	3	-69%[inhibitor]	-0.7
Cc1ccc(C(=O)OCC(=O)NNC(=O)c2ccccc2)c(O)c1	nt	0%	10%	-6	3	8%[15.4 µM]	nt
COc1ccc(C(=O)N2CCCN(C)CC2)cc1S(=O)(=O)N1CCCc2ccccc21	0.2%	-2%	6%	-24	-1	-9%	0.8

Structures listed so far marked active in Sfp PPTase inh.
| mol | gsp antag | Sfp PPTase inh | D2 potentiator | gsp agonist | Menin-MLL FL inh |
| --- | --- | --- | --- | --- | --- |
| Cc1ccc(/C=N\NC(=O)c2csnn2)cc1 | 4% | 10µM* | -20 | -1% | 2.5 |
